High-throughput results (PubChem BioAssay)
NS1 function inh: blocks influenza NS1 protein function | S. cerevisiae slowed by influenza A NS1, growth recovery by OD600 | actives 0.4% (n = 270,000) | Potency, µM (highest dose often 46.1 µM), without a hit: at the highest dose activity, positive = more growth; active means well fitted rising curve with a large enough effect; inconclusive means small, poorly fitted or top-dose-only effect; inactive means no such curve, though single readings can be large or run the other way; also: nearly all actives have a fitted effect of over 50% in size
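Compounds were scored for reversing the slow growth caused by influenza A NS1 in S. cerevisiae, measured by optical density at 600 nm. Assay medium contained 2% galactose at pH 6.0; NS1-free yeast of the same strain were the positive control.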
Cruzain inh noDet: cruzain (T. cruzi) inhibition without detergent; AID 1476; actives 2.3% (n = 200,000); purified cruzain, Z-FR-AMC fluorescence, no detergent; Potency, µM, for the others: max response, negative = inhibition, most hits filed as inhibitors;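 also: plate controls were enzyme without inhibitor for no effect and buffer without enzyme for full effect; nearly all actives have a fitted effect of over 40% in size; top concentration of the series not given in the record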
Target sequence (P25779 123-467 limits assumed): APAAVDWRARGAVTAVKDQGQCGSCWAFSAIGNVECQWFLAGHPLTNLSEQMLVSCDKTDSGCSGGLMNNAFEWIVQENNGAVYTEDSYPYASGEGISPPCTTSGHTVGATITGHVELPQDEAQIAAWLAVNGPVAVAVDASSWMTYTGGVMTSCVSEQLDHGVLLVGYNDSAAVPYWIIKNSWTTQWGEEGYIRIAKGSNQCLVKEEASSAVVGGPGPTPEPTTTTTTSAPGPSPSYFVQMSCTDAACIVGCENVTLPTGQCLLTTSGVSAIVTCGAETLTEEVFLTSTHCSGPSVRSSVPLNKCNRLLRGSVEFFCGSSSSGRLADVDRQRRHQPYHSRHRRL
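Purified cruzain at 1.5 nM, pre-incubated 15 min with compound at room temperature in 100 mM sodium acetate pH 5.5, 5 mM DTT, 0.00005% Triton X-100. Reaction started with 2 uM Z-FR-AMC; AMC fluorescence increase over 60 s gives rate.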
2A StopGo: FMDV 2A StopGo reporter, luciferase signal; human cells with a luciferase reporter of 2A StopGo recoding; control for the full effect not named in the record; Potency, µM (highest dose often 57.9 µM), for inactives: at the top dose signal change, negative = less light; actives 1.2% (n = 410,000); AID 1159524; active = well fitted falling curve with a large enough effect; inconclusive = small, poorly fitted or top-dose-only effect; inactive = no such curve, though single readings can be large or run the other way; tested in HEK293T cells; also: % is scaled to controls: 0 for no effect and ±100 for the full control effect; nearly all actives have a fitted effect of over 45% in size; luciferase light after 4 h
Lassa entry inh: Lassa virus entry inhibition; Lassa virus pseudotype entry inhibition, cell reporter; control for the full effect not named in the record; Potency, µM (top dose mostly 37.9 µM), without a hit: at the highest dose activity change, negative = inhibition, most hits filed as inhibitors; actives 1.2% (n = 300,000); AID 540256; active means well fitted inhibition curve with a large enough effect; inconclusive means small, poorly fitted or top-dose-only effect, or effect the other way; inactive means flat fitted curve, though single readings scatter; tested in HEK293 cells; also: % is scaled to controls: 0 for no effect and ±100 for the full control effect; nearly all actives have a fitted effect of over 50% in size; luciferase read-out
SARS PLpro yeast: inhibitors of SARS-CoV papain-like protease in yeast; AID 485353; S. cerevisiae expressing SARS-CoV PLpro, growth rescue; control for the full effect not named in the record; actives 0.19% (n = 330,000); Potency, µM (series often up to 32.9 µM), for inactives: at the top dose activity, positive = growth rescue; active means well fitted rising curve with a large enough effect; inconclusive means small, poorly fitted or top-dose-only effect; inactive means no such curve, though single readings can be large or run the other way; also: 0% is about no effect; nearly all actives have a fitted effect of over 55% in size; growth read by luminescence after 48 h
RE007 growth inh: less growth of the S. pombe RE007 Vpr strain; S. pombe RE007 Vpr strain, BacTiter-Glo ATP luminescence, 24 h; control for the full effect not named in the record; actives 0.21% (n = 360,000); Potency, µM (highest dose often 92.2 µM), for inactives: at the highest dose activity change, negative = less growth; AID 651644; active = well fitted falling curve with a large enough effect; inconclusive = small, poorly fitted or top-dose-only effect; inactive = no such curve, though single readings can be large or run the other way;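 also: % is scaled to controls: 0 for no effect and ±100 for the full control effect; nearly all actives have a fitted effect of over 50% in size; the assay follows cell death caused by Vpr and the record does not say whether a fall means rescue or toxicity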
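Fission yeast RE007 carrying one integrated HIV-1 vpr copy, seeded at OD 0.01 in PMG+AL medium with 23 nL pinned compound. Grown 24 h at 30 degrees; viability read by BacTiter-Glo luminescence after 5 min.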
Marburg entry inh: blocks Marburg virus binding to or entry into cells; Potency, µM (highest dose often 37.8 µM), for the others: top-dose activity change, negative = inhibition, actives largely listed as inhibitors; Marburg virus pseudotyped entry inhibition, cell reporter; control for the full effect not named in the record; about a third of the inactives were read at about 46 µM; actives 1.8% (n = 300,000); active = well fitted inhibition curve with a large enough effect; inconclusive = small, poorly fitted or top-dose-only effect, or effect the other way; inactive = flat fitted curve, though single readings scatter; tested in HEK293 cells; about a fifth of its hits are not listed in these tables; also: % is scaled to controls: 0 for no effect and ±100 for the full control effect; luciferase read-out
Cruzain Triton: blocks cruzain activity in presence of Triton detergent. P25779. purified cruzain, Z-FR-AMC fluorescence, 0.01% Triton. Potency, µM, for inactives: max response, negative = inhibition, usual class: inhibitors. actives 0.43% (n = 200,000). AID 1478;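 also: plate controls were neutral wells for no effect and buffer without enzyme for full effect; nearly all actives have a fitted effect of over 40% in size; top concentration of the series not given in the record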
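Compounds were screened in titration against cruzain (1.5 nM) with 0.01% Triton X-100 to counter colloidal aggregation. Activity was the AMC fluorescence increase over 60 s after adding 2 uM Z-FR-AMC at pH 5.5.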
The depositor's hits bear a star; ? = inconclusive; . = not tested or not shown; & = joins results of further samples; [ ] = dose if it differs, or a comment. Unless noted, calls follow the shape of the dose curve; as a rule, active = well fitted curve in the direction sought with a large enough effect; inconclusive = small, poorly fitted or top-dose-only effect, or another doubt; inactive = no such curve, though single readings can be large; an effect the other way counts as inactive or inconclusive. Potency is read from the fitted curve at half-maximal effect.

SMILES | NS1 function inh | Cruzain inh noDet | 2A StopGo | Lassa entry inh | SARS PLpro yeast | RE007 growth inh | Marburg entry inh | Cruzain Triton
CN1/C(=C\C(=O)CSc2ncn[nH]2)C(C)(C)c2ccccc21 | -7% | 4% | -22% | 13% | -1% | 8% | ? | -10.0%
CCCCCC(O)CCc1n[nH]c(=S)n1-c1ccccc1 (stereo not drawn) | -11% | -2% | -6% | -11% | 0% | 0% | 3% | 7.6%
COc1ccccc1OCCNC1CCCC1 | -1% | -10% | 4% | -5% | 23% | -5% | -17% | 2.1%
Cc1ccc(NC(=O)c2ccc(Br)cc2)c(C(=O)c2ccccc2)c1 | . | -1% | 10% | 21%[46.1 µM] | . | . | . | -3.0%
COc1ccc(CCn2c(=N)c(S(=O)(=O)c3ccc(Cl)cc3)cc3c(=O)n4ccccc4nc32)cc1 | 7% | . | -6% | 7%[46.1 µM] | 2% | -4% | 30%[46.1 µM] | .
CNS(=O)(=O)c1cn(CC(=O)NCc2ccc(OC)cc2)cc1S(=O)(=O)NC | -2% | . | -7% | 23%[46.1 µM] | 1% | 11% | -1%[46.1 µM] | .
Nc1nc2n(n1)C(c1ccco1)CC(c1ccc(Cl)cc1Cl)N2 (stereo not drawn) | 8% | -13% | -17% | 0%&1% | 2% | 16% | 5%&-7% | -4.0%
O=[N+]([O-])c1ccc(Cl)c(S(=O)(=O)Nc2cccc(S(=O)(=O)NC3=NCCC3)c2)c1 | . | . | 33%[activator] | 14%[46.1 µM] | 1% | -26% | 7%[46.1 µM] | .
COc1ccc(/C=C/C(=O)NC(=S)Nc2ccc(S(=O)(=O)N=C(N)N)cc2)cc1OC | 4% | . | -4% | -2% | 0% | 4% | -25% | .
CNc1oc(Cc2ccccc2)nc1S(=O)(=O)c1ccccc1 | 2% | 3.2µM* | ? | 5% | 0% | ? | 6% | 3.2µM*
Cn1nc(C(F)(F)F)c(-c2cccc(C(F)(F)F)c2)c1NC(=O)Nc1ccc(F)cc1 | 0% | . | -20% | -18% | 0% | 2% | -20%[46.1 µM] | .
COc1ccc(N2CCN(C(=O)CN(C)S(=O)(=O)c3cnc[nH]3)CC2)cc1 | 8% | 3% | -24% | ? | 7% | -16% | 5% | -1.7%
COc1ccc(C(=O)/C=C/c2ccc(OC3CSC3)cc2)cc1 | -19% | -12% | -28% | ? | 6% | -10% | ? | -3.1%
C=CCOc1c(Br)cc(/C=N/NC(=O)Cc2ccc(C(F)(F)F)cc2[N+](=O)[O-])cc1OC | 3% | -29% | -12% | 11% | 23% | -14% | ? | 0.3%
CC(C)c1ccc(NC(=O)CSC2=Nc3ccccc3C3=NC(CCC(=O)NCc4ccc(F)cc4)C(=O)N23)cc1 (stereo not drawn) | . | 19% | -36% | -1%[46.1 µM] | . | . | . | -5.6%
COc1ccc(S(=O)(=O)N2CCOCC2)cc1NC(=O)CSc1nnnn1C1CC1 | . | . | 7% | 7% | 10% | -22% | 12% | .
COc1ccccc1N1C(=NC(=O)C(C)Oc2ccccc2)SC2CS(=O)(=O)CC21 (stereo not drawn) | -7% | . | -13% | -13%[46.1 µM] | 6% | -5% | 6%[46.1 µM] | .
COc1ccc(-c2nnc(OC)c3ccccc23)cc1 | -47% | . | -8% | . | -3% | 4% | . | .
COCC(=O)Nc1ccccc1C(=O)NC(C)C | 2% | 6% | 0% | 1% | -5% | 8% | 3% | 15%
COC(=O)C1=C(N)Oc2cc(C)oc(=O)c2C1c1cccnc1 (stereo not drawn) | 7% | -3% | -2% | 23% | 5% | 7% | 10%&10% | 3.2%
COc1ccc(OCCC(=O)OCC(=O)Nc2cccc(S(=O)(=O)N3CCCCC3)c2)cc1 | . | . | -14% | -22% | -7% | -2% | -1% | .
S=C(NCc1cccs1)Nc1ccccc1Cl | ? | -4% | 38%[activator] | -2% | 1% | -9% | 0% | -2.4%
CC12CCC(O)CC1=CCC1C2CCC2(C)c3[nH]ncc3CC12 (stereo not drawn) | . | . | -19% | ? | . | 14% | 3%[46.1 µM] | .
COc1cc(NC(=O)CCCNC(=O)c2ccc(Cl)cc2)cc(OC)c1OC | -4% | . | -12% | . | 1% | 6% | . | .
CCOC(=O)c1cccc(N2C(N)=NC(N)=NC2(C)C)c1 | -3% | 2% | -15% | 16% | 3% | -12% | 12% | -3.2%
O=C1NC(=S)N/C1=C/c1cccc([N+](=O)[O-])c1 | 6% | . | -2% | 11% | -2% | -1% | 1%[46.1 µM] | .
O=C(Nc1cccc(-c2ccc(N3CCCCC3)nn2)c1)C(F)(F)F | 8% | . | -62% | . | -2% | 5% | . | .
Cc1c(Cl)cccc1NC(=S)NC(=O)c1cncc(Br)c1 | . | . | -8% | 3.2µM* | . | ? | -5%[46.1 µM] | .
Cc1cc(NC(=O)CCC(=O)N(c2ccccc2C)C(C(=O)NC2CCCC2)c2ccccc2)no1 (stereo not drawn) | 16% | . | 14% | ? | -2% | 14% | ? | .
COc1ccccc1C(=O)COC(=O)COc1ccc(C#N)cc1 | . | . | -26% | 2% | 1% | -10% | 1% | .
O=C1CC(N2CCN(c3cccc(C(F)(F)F)c3)CC2)C(=O)N1c1ccccc1F (stereo not drawn) | 1% | ? | -17% | 15% | -16% | -24% | 18% | -4.4%
S=C(Nc1ccc2nccnc2c1)N1CCOCC1 | -2% | . | 10% | 2% | 0% | 14% | ? | .
COc1ccc(CCN(C)Cc2ccc(OCc3ccccc3)c(OC)c2)cc1OC | -8% | 6% | 4% | -10% | 2% | 5% | ? | 0.5%
Cn1c(NC(=O)C[n+]2cc(-c3ccc(Cl)cc3)n3c2CCC3)cc(=O)n(C)c1=O | -1% | -3% | 5% | 5% | 12% | ? | -16% | -1.7%
CCOC(=O)N1CCN(Cc2nc3cc(NC(=O)C(C)C)ccc3n2CC)CC1 | 0% | . | -9% | 10% | 0% | 4% | ? | .
CC(C)OP(C)(=O)CN1CCN(CP(C)(=O)OC(C)C)CC1 (stereo not drawn) | 6% | 10% | . | 1% | -3% | 0% | -3% | 5.1%
CCOC(=O)C1CCCN(C(=S)NC(=O)c2cc(Br)ccc2Cl)C1 (stereo not drawn) | . | . | -10% | -27% | 5% | 120% | 0%[46.1 µM] | .
COc1ccccc1/C=N/NC(=O)CN(C1=NS(=O)(=O)c2ccccc21)c1ccccc1 | -16% | -27% | -20% | 9% | 4% | 1% | ? | -4.0%
Cc1cccc(-c2noc(CNC(=O)c3ccc4c(c3)OCO4)n2)c1 | -28% | . | 35%[activator] | -1%[46.1 µM] | 0% | 7% | ? | .
CC12CCC(=O)N1C(C(=O)NNC(=O)COc1ccc(Br)cc1)CS2 (stereo not drawn) | . | . | -18% | -1%[46.1 µM] | 4% | 11% | 0% | .
c1ccc(CNCc2ccc3c(c2)OCO3)nc1 | 8% | 4% | -12% | 13% | -23% | 2% | 5% | 0.1%
CCn1cc(C(=O)N2CCN(c3cccc(Cl)c3)CC2)c(=O)c2cc(S(=O)(=O)N3CCCCC3)ccc21 | . | ? | -4% | -14%[46.1 µM] | . | . | 7%[46.1 µM] | -12%
COc1ccc(N2C(=NC(=O)C3CCCCC3)SC3CS(=O)(=O)CC32)cc1OC (stereo not drawn) | -8% | . | 9% | . | 1% | -2% | . | .
CCOc1ccc(C2C(C(=O)/C=C/c3ccco3)=C(O)C(=O)N2CCN2CCOCC2)cc1OC (stereo not drawn) | . | . | 13% | -8% | 5% | 6% | 25%[46.1 µM] | .
O=S(=O)(c1cc(Cl)ccc1Cl)N1CCC2(CC1)OCCO2 | -2% | . | -8% | 3%[46.1 µM] | -3% | 6% | 1%[46.1 µM] | .
Cc1csc2c(NC3CCN(Cc4ccccc4)CC3)ncnc12 | -3% | . | -14% | -14%[46.1 µM] | -7% | 2% | 2.8µM* | .
Cc1ccccc1N1C(=O)NC(=O)/C(=C\c2cc(C)n(C)c2C)C1=O | . | . | -8% | -3%[46.1 µM] | 0% | 4% | -7%[46.1 µM] | .
Cc1cccc(NC(=O)CSc2nc3c([nH]c4ccccc43)c(=O)n2-c2cc(C)cc(C)c2)c1 | . | -20% | 0% | -16%[46.1 µM] | . | . | . | 1.6%
CC(O)Cn1ccccc1=N (stereo not drawn) | 7% | 2% | 2% | 14% | 3% | -1% | -2% | -0.5%
Cc1cc(C)c(NC(=O)CC(=O)c2ccccc2)c(Cl)c1 | 1% | . | -11% | 22%[46.1 µM] | -4% | 96% | 4%[46.1 µM] | .
O=C(OCc1ccc(F)cc1Cl)c1ccccn1 | -63% | 0% | 0% | 4% | -22% | -5% | 2% | 0.3%
COc1ccccc1NC(=O)C(=O)c1cn(CC(=O)N2CCCC2)c2ccccc12 | 14% | . | 0% | . | 1% | 2% | . | .
O=C(Nc1ccc(OC(=O)c2ccccc2)c(-c2nc3ccccc3s2)c1)c1ccccc1 | 7% | 7.9µM* | -15% | -12% | 1% | -1% | -27% | -0.5%
COc1ccc(N2CC(C(=O)Nc3ccccc3C(=O)NC3CC3)CC2=O)cc1 (stereo not drawn) | 2% | . | 5% | -11% | 0% | 24% | 18%[46.1 µM] | .
CC(/C=C/c1ccc2c(c1)OCO2)=N\NC(=O)COc1ccccc1C | -3% | 1% | 3% | 0% | 3% | 7% | -3% | -6.5%
Cc1c(Br)c([N+](=O)[O-])nn1C(C)C(=O)Nc1nccs1 (stereo not drawn) | -4% | 2% | -27% | -6% | 0% | -11% | ? | -1.1%
CCCC(=O)Nc1cc(C(=O)O)ccc1S(=O)(=O)c1ccc(Cl)cc1 | 15% | -8% | 4% | -7% | 20% | 4% | -4% | -0.1%

Looked up above:
Under RE007 growth inh, COc1ccc(N2CC(C(=O)Nc3ccccc3C(=O)NC3CC3)CC2=O)cc1 (stereo not drawn) shows 24%
Under SARS PLpro yeast, CC(/C=C/c1ccc2c(c1)OCO2)=N\NC(=O)COc1ccccc1C shows 3%
